Bioassay records: PubChem, several laboratories
FPRL1 binder: human FPRL1 ligands by binding competition, primary screen, cell-based, FPR counter-screen, flow cytometry; N-formyl peptide receptor 2 (Homo sapiens), P25090; FPRL1-expressing cells, fluorescent ligand binding inhibition; inhibition, %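 (tested at 6.7 µM)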; 0.3% of 24,000 active; AID 441, 2006;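 also: 0% = buffer alone and 100% = receptor blocker peptide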
Target sequence (P25090 whole entry, looked up): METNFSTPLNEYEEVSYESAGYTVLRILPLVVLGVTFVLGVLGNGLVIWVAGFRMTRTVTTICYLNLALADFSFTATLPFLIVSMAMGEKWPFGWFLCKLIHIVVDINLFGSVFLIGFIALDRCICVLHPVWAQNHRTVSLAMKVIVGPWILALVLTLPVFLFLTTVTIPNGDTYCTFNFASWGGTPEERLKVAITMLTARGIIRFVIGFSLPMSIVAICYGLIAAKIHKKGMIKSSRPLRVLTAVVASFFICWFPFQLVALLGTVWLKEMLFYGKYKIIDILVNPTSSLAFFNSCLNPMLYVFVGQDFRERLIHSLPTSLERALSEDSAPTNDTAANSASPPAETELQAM
VCAM-1 down: inhibitors of TNFa-induced VCAM-1 surface display, cell-based, plate reader, pooled HUVEC, TNFa stimulus (AID 454); 0.2% of 10,000 active; HUVEC TNFa-induced VCAM-1 surface immunofluorescence, plate reader; numbers were filed only for top-ranked candidate wells; inhibition, % at 5 µM;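 active = compound among top-ranked inhibitors of TNF-induced VCAM-1 adhesion protein staining, with the hit upheld by image or statistical review; inactive = the rest, including hits rejected on review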;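 also: 0% = TNFa with vehicle and 100% = cells without TNFa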
VCAM-1 imaging: inhibitors of TNFa-induced VCAM-1 surface display, imaging, high-content imaging, pooled HUVEC, TNFa stimulus (AID 456); HUVEC TNFa-induced VCAM-1 surface expression, immunofluorescence imaging; numbers were filed only for top-ranked candidate wells; one-dose inhibition, % at 5 µM; IC50 in µM for titrated hits; 0.2% of 10,000 active;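 active = top tenth filtered wells with inhibition above zero that passed visual or statistical confirmation; inactive = the rest, including hits rejected on review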;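 also: 0% = stimulated vehicle wells and 100% = unstimulated cells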
VCAM-1 augmentation: enhancers of VCAM-1 display on endothelial cells, imaging, high-content imaging, pooled HUVEC, TNFa stimulus (AID 457). 0.2% of 10,000 active. Pooled HUVEC, TNFa-induced VCAM-1 immunofluorescence imaging; hits of this screen are not shown here. calls only;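 active = a top-ranked rise in VCAM-1 staining upheld on image or statistical review; inactive = the rest, including candidates rejected on review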;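 also: compounds tested at 5 µM in the well; cells exposed to compound for 24 hours before fixing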
FPR ligand: human FPR ligands by binding competition, primary screen, cell-based, FPRL1 counter-screen, flow cytometry | fMet-Leu-Phe receptor (Homo sapiens), P21462 | inhibition, %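 (tested at 6.7 µM)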 | 0.74% of 24,000 active | FPR-expressing cells, fluorescent ligand binding;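 also: 0% = buffer wells and 100% = receptor blocker peptide wells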
Target sequence (P21462 whole entry, looked up): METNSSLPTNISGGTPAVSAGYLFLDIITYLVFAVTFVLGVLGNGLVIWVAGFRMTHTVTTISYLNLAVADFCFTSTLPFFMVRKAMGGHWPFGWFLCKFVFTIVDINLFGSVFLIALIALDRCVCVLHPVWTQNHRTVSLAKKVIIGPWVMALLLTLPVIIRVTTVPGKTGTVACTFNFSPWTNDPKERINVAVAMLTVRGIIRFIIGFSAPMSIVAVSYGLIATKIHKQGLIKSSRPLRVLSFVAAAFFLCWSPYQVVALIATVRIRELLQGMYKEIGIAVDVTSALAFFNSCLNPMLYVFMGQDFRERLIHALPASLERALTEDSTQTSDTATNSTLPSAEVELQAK
Numbers without * were called inactive; i = inactive; . = not tested or not shown.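 The calls were made as follows, unless noted: active = mean above 30%; inconclusive = self-fluorescent; inactive = the rest.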 This is a subset, so the mix of outcomes need not match the whole.

no.	SMILES	FPRL1 binder	VCAM-1 down	VCAM-1 imaging	VCAM-1 augmentation	FPR ligand
1	COc1ccccc1CC1(C)NC(=O)N(CC(=O)Nc2cc(C)on2)C1=O (centres undefined)	2	i	i	i	-4
2	CCOCCCNCC(=O)N1CCN(S(=O)(=O)c2ccc(C)cc2)CC1	2	i	i	i	11
3	Cc1ccc(C(=O)C2=C(O)C(=O)N(c3ncccn3)C2c2ccc(Cl)cc2)o1 (centres undefined)	0	.	.	.	-1
4	COc1ccc(C(=O)O)cc1F	3	.	.	.	-2
5	Cc1noc(C)c1S(=O)(=O)N1CCCC(C(=O)Nc2nccs2)C1 (centres undefined)	-4	.	.	.	-6
6	CCN1C(=O)C2(C(C#N)=C(N)Oc3n[nH]c(C(C)C)c32)c2ccccc21 (centres undefined)	2	i	i	i	4
7	CCOC(=O)CSC1=NC(=O)CS1	10	.	.	.	-1
8	Cc1ccc(Cn2ccc(NC(=O)c3cc(-c4ccc(Cl)cc4)on3)n2)cc1	1	.	.	.	-1
9	Cc1cc(C)n(-c2nc3ccccc3[nH]c2=O)n1	-7	.	.	.	-3
10	N#C/C(C(=O)c1ccccc1)=C1/CCCN1	-1	i	i	i	-2
11	CCOc1nc(N(C)C)nc(-n2nnc(C(C)=O)c2C)n1	-6	.	.	.	4
12	Cc1ccc(C)c(C(=O)CC2(O)C(=O)N(C)c3ccccc32)c1 (centres undefined)	-2	i	i	i	-6
13	COCc1cc(C)nc(Nc2ccc(C)cc2C)c1C#N	-11	i	i	i	-11
14	Cn1nc(CC(=O)NC2CCCCCC2)c2ccccc2c1=O	0	.	.	.	-3
15	CC1CCC(NC(=O)C2CCN(c3cnccn3)CC2)CC1 (centres undefined)	0	i	i	i	-7
16	Cc1nn(C)c(C)c1S(=O)(=O)N1CCc2ccccc21	-9	.	.	.	9
17	CCOc1ccc(NS(=O)(=O)c2ccc(OCC(=O)N3CCCC3)cc2)cc1	2	i	i	i	-4
18	COc1ccc(N=C2CCCN2CC(N)=O)cc1	6	.	.	.	-8
19	CC1(C(=O)NC2CCCC2)CCC(=O)N1Cc1cccs1 (centres undefined)	-5	.	.	.	-7
20	Cn1c(CCNC(=O)C(C)(C)C)nc2ccccc21	1	.	.	.	3
21	O=C(CNC(=O)Cn1ccc2ccccc2c1=O)NCCCN1CCCCCC1	3	.	.	.	-10
22	CC(=O)OCC1OC(c2ccccc2)C(OC(C)=O)C(OC(C)=O)C1OC(C)=O (centres undefined)	9	i	i	i	7
23	O=C1c2ccccc2C(Nc2ccc(F)cc2F)N1CCN1CCOCC1 (centres undefined)	-1	i	i	i	1
24	Cc1[nH]nc2c1C(c1ccc(OC(=O)c3ccco3)cc1)C(C#N)=C(N)O2 (centres undefined)	-4	.	.	.	1
25	O=C(C1CCCO1)N1CCN(S(=O)(=O)c2ccccc2)CC1 (centres undefined)	-2	i	i	i	-4
26	CC(NC(=O)c1ccco1)C(c1cccs1)N1CCN(c2ccc(F)cc2)CC1 (centres undefined)	4	i	i	i	-2
27	C=CCOc1cccc(C2c3c(oc4ccc(F)cc4c3=O)C(=O)N2CCCN2CCOCC2)c1 (centres undefined)	-1	.	.	.	2
28	Cc1ccccc1-n1c(Cn2c(=O)sc3ccccc32)nnc1SCC(=O)N1CCCC1	1	i	i	i	2
29	O=C(NCc1ccccn1)c1cc(-n2cnnc2)ccc1Cl	2	i	i	i	-3
30	O=C(CN1CCN(S(=O)(=O)c2ccc(Cl)cc2)CC1)Nc1ccc2c(c1)OCO2	8	.	.	.	2
31	COC(=O)CN(c1ccc(C)cc1)S(=O)(=O)c1ccc2c(c1)n(C)c(=O)c(=O)n2C	2	.	.	.	2
32	Cc1ccc(C(C(=O)NC(C)(C)C)N(C(=O)c2csnn2)c2cccc(F)c2)o1 (centres undefined)	14	i	i	i	14
33	O=S(=O)(Nc1ccc(C(F)(F)F)cc1)c1cnc[nH]1	3	.	.	.	1
34	Cc1csc(OCc2ccc(C#N)cc2)n1	-1	i	i	i	-4
35	O=C(NCCCN1CCOCC1)c1cc(-c2ccc(O)cc2)on1	11	i	i	i	-4
36	Cn1cccc1Cc1nnc(SCC(N)=O)n1CCc1ccccc1	-4	.	.	.	2

Other compounds follow.
Values run as follows: FPRL1 binder | VCAM-1 down | VCAM-1 imaging | VCAM-1 augmentation | FPR ligand
37: COc1ccc(Cl)cc1C(=O)N1CCN=C1SC
  10 | . | . | . | -3
38: O=C(COc1ccc(F)cc1Br)N1CCc2ccccc21
  5 | i | i | i | 4
39: O=C(c1ccco1)N1CCN(C(=O)C2(S(=O)(=O)c3ccc(Cl)cc3)CC2)CC1
  -13 | . | . | . | 0
40: O=C(CSc1ncnc2c1cnn2Cc1ccccc1)Nc1ccc2c(c1)OCCO2
  -2 | i | i | i | -1
41: CCN(CC)CCNC(=O)c1ccc2c(c1)ncn2C1CCCCC1
  4 | . | . | . | -4
42: COc1ccc(NC(=O)c2ccc3c(c2)n(C)c(=O)n3C)cc1
  -5 | . | . | . | -5
43: Cc1nc2c3ccccc3[nH]c(=O)n2n1
  -1 | . | . | . | -2
44: O=C(COc1ccccc1)NCCSCc1ccco1
  -4 | i | i | i | -1
45: O=C(NCC(c1cccnc1)N1CCN(c2ccccc2)CC1)c1ccc2c(c1)OCO2 (centres undefined)
  5 | i | i | i | 6
46: CC1(C)CC(=O)c2cnc(NCc3ccco3)nc2C1
  3 | i | i | i | 0
47: Cc1cc(NC(=O)COc2cccc3cccnc23)no1
  6 | i | i | i | 5
48: CN(CC(=O)N1CCCc2c1c(=O)oc1ccc(O)cc21)Cc1ccccc1
  -2 | i | i | i | -4
49: COc1ccc(NC(=O)CSc2nc3ccccc3c(=O)n2-c2ccc3c(c2)OCO3)c(OC)c1
  -1 | . | . | . | -1
50: COc1ccc(Cn2c(CCC(=O)O)nc3cccnc32)cc1
  -2 | . | . | . | 1
51: CCN(CCNC(=O)C1CCN(Cc2nc(-c3ccc(Cl)cc3)oc2C)CC1)c1ccccc1
  -2 | . | . | . | 4
52: O=C(C1CC(c2ccc(F)cc2)=NO1)N1CCCCC1 (centres undefined)
  0 | . | . | . | -2
53: CC1CCCCC1n1c(=S)[nH]c2ccccc2c1=O (centres undefined)
  -11 | . | . | . | -9
54: CCCS(=O)(=O)N1CCC(C(=O)NCc2cccnc2)CC1
  6 | . | . | . | 7
55: CCCCOC(=O)CSCC(=O)Nc1cc(C)on1
  -1 | . | . | . | 2
56: CCOC(=O)c1cc(-c2ccc(Cl)s2)nc2c1c(C)nn2C
  -7 | i | i | i | -1
57: O=C1NCCN1C(=O)c1ccccc1F
  -3 | . | . | . | 1
58: CCCN1C(=O)SC(CC(=O)Nc2ccc(Br)cc2)C1=O (centres undefined)
  8 | i | i | i | -7
59: Cc1ccc(C)c(-n2nnnc2SCC(=O)NCCC2=CCCCC2)c1
  4 | i | i | i | -2
60: O=C(NCc1ccccc1)C1CCCN(S(=O)(=O)c2cccnc2)C1 (centres undefined)
  -2 | i | i | i | -3
61: CCC(=O)Nc1cccc(Br)c1
  -4 | i | i | i | -9
62: CCCc1nc(NCc2ccncc2)c2nnn(Cc3ccccc3F)c2n1
  -1 | i | i | i | -6
63: Cc1cc(S(=O)(=O)n2cnc3ccccc32)c(C)cc1Cl
  2 | i | i | i | -2
64: Cc1cc(N2CCN(C3CCCCC3)CC2)n2nc(C)nc2n1
  -2 | . | . | . | 0
65: CC(=O)c1nn(-c2cccc(Cl)c2)cc1C(=O)c1ccco1
  -3 | . | . | . | 2
66: Cc1ccc(CSc2nc3c(c(=O)[nH]2)C(c2ccncc2)C2=C(CCCC2=O)N3)cc1 (centres undefined)
  7 | i | i | i | 17

Grouped by structure, the entries above with a tert-butyl group.
Values run as follows: FPRL1 binder | VCAM-1 down | VCAM-1 imaging | VCAM-1 augmentation | FPR ligand
20: Cn1c(CCNC(=O)C(C)(C)C)nc2ccccc21
  1 | . | . | . | 3
32: Cc1ccc(C(C(=O)NC(C)(C)C)N(C(=O)c2csnn2)c2cccc(F)c2)o1 (centres undefined)
  14 | i | i | i | 14

The list goes on:
Values run as follows: FPRL1 binder | VCAM-1 down | VCAM-1 imaging | VCAM-1 augmentation | FPR ligand
67: Cc1noc(C)c1S(=O)(=O)N1CCCC(C(=O)NCC2CCCO2)C1 (centres undefined)
  -2 | . | . | . | -4
68: CC(=O)Nc1cc2ccc(OC(C)=O)cc2oc1=O
  -1 | . | . | . | -4
69: CCOC(=O)c1ccc(NC(=O)Cn2nnc(-c3ccc(F)cc3)n2)cc1
  1 | . | . | . | -1
70: Cc1ccccc1Cn1cnc2c(cnn2C(C)(C)C)c1=O
  -2 | . | . | . | 7
71: COc1ccc(N2CSC3=C(C#N)C(c4cccc(OC)c4OC)CC(=O)N3C2)cc1 (centres undefined)
  -1 | . | . | . | 3
72: O=C1N(CC(=O)N2CCc3ccccc32)CCN1Cc1ccccc1Cl
  12 | . | . | . | 10
73: CN(C(=O)c1ccccc1)c1ccc(OCC(=O)NC2CCS(=O)(=O)C2)cc1 (centres undefined)
  -7 | . | . | . | -3
74: CCc1nn(C(C)C(=O)NC(C)CCc2ccco2)c(=O)c2cc3occc3n12 (centres undefined)
  2 | . | . | . | 7
75: O=S(=O)(NCCOCC(F)(F)F)c1ccc2oc3ccccc3c2c1
  -9 | . | . | . | 3
76: N#CCSc1nc2cc(C(=O)N3CCCC3)ccc2c(=O)n1Cc1ccccc1
  2 | . | . | . | 4

A draw from above in order of SMILES length, rising:
Values run as follows: FPRL1 binder | VCAM-1 down | VCAM-1 imaging | VCAM-1 augmentation | FPR ligand
68: CC(=O)Nc1cc2ccc(OC(C)=O)cc2oc1=O
  -1 | . | . | . | -4
69: CCOC(=O)c1ccc(NC(=O)Cn2nnc(-c3ccc(F)cc3)n2)cc1
  1 | . | . | . | -1
74: CCc1nn(C(C)C(=O)NC(C)CCc2ccco2)c(=O)c2cc3occc3n12 (centres undefined)
  2 | . | . | . | 7

(listing goes on)
Values run as follows: FPRL1 binder | VCAM-1 down | VCAM-1 imaging | VCAM-1 augmentation | FPR ligand
77: Cc1ccc(OCCn2cc(/C(N)=N/O)c3ccccc32)cc1C
  13 | . | . | . | 4
78: COC(=O)c1cc2sccc2n1CC(=O)Nc1cccc(SC)c1
  -10 | . | . | . | -2
79: CCCCC(=O)N(c1ccc(OCC)cc1)C1C=CS(=O)(=O)C1 (centres undefined)
  -1 | . | . | . | 3
80: Cc1ccc(F)cc1NC(=O)C1CCCN(c2ncccn2)C1 (centres undefined)
  1 | i | i | i | 6
81: O=C(c1ccc2c(c1)N(Cc1ccccc1)C(=O)CS2)N1CCOCC1
  -11 | . | . | . | 6
82: CC1CCN(C(=O)c2cc(-c3ccc(Cl)c(Cl)c3)on2)CC1
  -4 | i | i | i | 2
83: O=S(=O)(NCC1CCCO1)c1cc(Cl)ccc1Br (centres undefined)
  10 | i | i | i | -4
84: Cc1cc(NC(=O)c2ccc3c(c2)C(=O)N(Cc2cccnc2)C3=O)no1
  1 | i | i | i | 5
85: COc1ccc(OC)c(S(=O)(=O)N2CCC(C(=O)NCC3CCCO3)CC2)c1 (centres undefined)
  -1 | i | i | i | 1
86: Cc1nc2c(C(=O)N3CCCC3)c[nH]n2c(=O)c1Cc1ccc(F)cc1Cl
  -2 | . | . | . | 0
87: O=C1Nc2ccccc2C(O)(C(=O)NCc2ccco2)N1c1ccc(Cl)cc1 (centres undefined)
  1 | . | . | . | 3
88: Cn1c(C(=O)NCCCN2CCN(c3ccc(F)cc3)CC2)cc2c(=O)n(C)c3ccccc3c21
  6 | i | i | i | -1
89: COc1cccc(-n2nnc3c(=O)n(Cc4ccc(C)cc4)cnc32)c1
  3 | . | . | . | -3
90: c1ccc(-c2nc(N3CCCCCC3)nc(-n3ccnc3)n2)cc1
  0 | . | . | . | 8
91: Cn1c(Cn2c(=O)sc3ccccc32)nnc1SCc1ccccc1F
  -4 | . | . | . | 2
92: CCOc1ccc(CCNC(=O)CCn2cccc2)cc1OCC
  -5 | . | . | . | -1
93: O=C(Nn1cnc2ccccc2c1=O)C1CCCCC1
  -4 | . | . | . | 24
94: CC1CCc2nn(CC(=O)Nc3c(F)cc(F)cc3Br)cc2C1 (centres undefined)
  -3 | . | . | . | 2
95: COc1ccc(N2Cc3ccccc3C2)cc1Cl
  -3 | i | i | i | 14

Values in list order from the list:
Compounds 87 to 93 in FPR ligand: 3, -1, -3, 8, 2, -1, 24
